High-throughput results from PubChem BioAssay.
A1 inh = inhibitors of the anti-apoptotic protein A1, read as caspase activation. MEF A1-2A-BIM cells, Caspase-Glo 3/7 luminescence, 3 h; percent of clofoctol response, vehicle zero. caspase activation, % (concentration not given with the values). 0.066% of 330,000 active;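 active = over half of replicate activation scores above 10%, or exactly half above 10 with the replicate mean above 10; inconclusive = replicate mean below 10 yet half the replicates above 10; inactive = over half of replicates below 10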;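 note: wells of about 30 µL received 50 nL stock; many hits fall short of the cut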
T cruzi inh = T. cruzi replication inhibition | T. cruzi beta-gal in NIH3T3, luminescence, 90 h | inhibition, % (concentration not given with the values) | 1.4% of 300,000 active | AID 1885;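 active = mean inhibition across valid replicates above about 55%, limit read from the data; inconclusive = mean below that limit but half or more replicates reach it; inactive = mean below it, under half of replicates reach it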;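 note: signal also drops with host cell toxicity which is not excluded here; 0% = plate median of DMSO wells and 100% = zero luminescence signal; higher percent means less beta-gal luminescence so fewer parasites; stock transfer was 50 nL into about 50 µL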
AF4-AF9 inh = MLL-AF4/AF9 protein interaction inhibition | P42568 | AlphaScreen, biotin-AF4 peptide binding to FLAG-AF9 | inhibition, % at 10 µM | 0.47% of 350,000 active;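 active = every replicate reaching a set inhibition limit, whatever the replicate mean, cut at about 25% in these data; inconclusive = mean inhibition reaches that limit but some replicates miss it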;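 note: 0% = plate neutral control median and 100% = total signal loss; the record names both 10 and 1 µM as test concentration; the first replicate is given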
Target sequence (P42568 whole entry, looked up): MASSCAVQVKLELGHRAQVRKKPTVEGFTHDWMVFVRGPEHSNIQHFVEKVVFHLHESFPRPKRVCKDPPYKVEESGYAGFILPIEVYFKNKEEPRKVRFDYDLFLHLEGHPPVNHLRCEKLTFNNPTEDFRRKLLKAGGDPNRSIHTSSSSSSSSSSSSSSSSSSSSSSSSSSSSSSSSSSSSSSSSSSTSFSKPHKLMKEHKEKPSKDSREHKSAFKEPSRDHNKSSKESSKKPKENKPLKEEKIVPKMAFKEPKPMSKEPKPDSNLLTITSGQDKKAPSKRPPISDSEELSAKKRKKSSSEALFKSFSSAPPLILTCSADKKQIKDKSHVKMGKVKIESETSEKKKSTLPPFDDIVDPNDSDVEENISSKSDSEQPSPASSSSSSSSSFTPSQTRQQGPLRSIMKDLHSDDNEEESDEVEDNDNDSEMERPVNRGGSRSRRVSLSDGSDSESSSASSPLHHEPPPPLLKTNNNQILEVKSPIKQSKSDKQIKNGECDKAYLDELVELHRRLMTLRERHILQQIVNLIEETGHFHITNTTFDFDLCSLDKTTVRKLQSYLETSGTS
RanGTP-Impb inh = inhibitors of RanGTP-importin-beta interaction, primary screen, biochemical, FRET, CFP-Ran, YFP-importin-beta, homogeneous | inhibition, % (concentration not given with the values) | 1.1% of 300,000 active | AID 2216 | cell-free CFP-Ran/YFP-importin-beta FRET ratio;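 active = most replicates above 15%; inconclusive = exactly half above 15%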;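 note: 0% = DMSO wells and 100% = Ran loaded with GDP instead of GTP; wells of about 40 µL received 100 nL stock; the first replicate is given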
Calb FLC = C. albicans growth modulation with fluconazole. 0.57% of 300,000 active. C. albicans CaCi-2 (fluconazole-resistant clinical isolate) + fluconazole, Alamar Blue growth, 48 h. growth inhibition, % (concentration not given with the values);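 active = most replicates above 75%; inconclusive = exactly half above 75%; inactive = most below 75%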;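 note: all wells also contain fluconazole at 8 µg/ml as a sub-toxic cotreatment; 0% = median of DMSO wells and 100% = median of geldanamycin control wells; wells of about 8 µL received 7.5 nL stock; the first replicate is given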
rRNA inh HTS = selective bacterial rRNA inhibition in E. coli; E. coli WT GFP vs humanized-ribosome RFP mutants, fluorescence, 24 h; stronger effect = lower value; DMSO median 0, no signal -100; GFP signal change (wild-type ribosome), % (concentration not given with the values); 1.6% of 350,000 active;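 active = significant combined selectivity score with lowered wild-type GFP, culture density cut under 30%, mutant RFP and density less affected; inactive = any of these conditions unmet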; note: one replicate is shown; some compounds called inactive have numbers as strong as hits
Vif TR-FRET = inhibitors of Vif binding to APOBEC3G peptide, primary screen, biochemical, TR-FRET, GST-Vif 1-94, biotin-A3G peptide, dose response retest (AID 1117319); inhibition, %; hits with a dose series show IC50 in µM; 0.57% of 260,000 active; TR-FRET GST-Vif / biotin-A3G peptide binding; higher % means a stronger effect; test concentration not given here; strong numbers were not always called active;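 active = above the screen mean plus three standard deviations and confirmed in dose response; inconclusive = results disagree or hit not tested in dose response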;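 note: Vif residues 1-94 fused to GST binding biotinylated APOBEC3G peptide 110-148; 0% = full assay without inhibitor and 100% = GST in place of GST-Vif; retest series ran down from 100 µM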
Beta apoptosis = blocks beta cell apoptosis; INS-1E cytokine-induced death, ATP luminescence, 48 h; percent of positive-control rescue, neutral wells zero; protection from apoptosis, % (no concentration beside the values); AID 435005; 0.8% of 300,000 active;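 active = all replicates at 75% or more, or half of them and the mean; inconclusive = half reach 75% but not the mean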;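 note: 0% = cytokine-treated negative control wells and 100% = positive control rescue; higher means more ATP so stronger rescue from cytokine killing; wells of about 40 µL received 100 nL stock; the first replicate is given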
rRNA inh HTS OD600 = second read-out of rRNA inh HTS, no call of its own (marks repeat the call); OD600 change, %; measured here: OD600 growth;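 optical density of the mix in the first replicate; 0 = DMSO median and -100 = no signal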
rRNA inh HTS RFP = recorded beside rRNA inh HTS, whose call it bears; RFP signal change, %; measured here: RFP humanized mutant strains;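 first replicate; 0 = DMSO median and -100 = no signal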
* = called active by the depositor; u = inconclusive; x = no result given; & = joins results of further samples. A portion of the library; count on the stated rates, not on these rows.

SMILES	A1 inh	T cruzi inh	AF4-AF9 inh	RanGTP-Impb inh	Calb FLC	rRNA inh HTS	rRNA inh HTS OD600	rRNA inh HTS RFP	Vif TR-FRET	Beta apoptosis
CCCCNC(=O)NS(=O)(=O)c1ccc(NC(=O)C(NC(N)=O)C(C)CC)cc1 (stereo unspecified)	1.1	-5	-5.2	-1.1	-2	14	9	-0.2	1%	-6
Cc1ccc2c(c1)N(CC(=O)NCCCc1ccccc1)C(=O)c1cccnc1O2	0.2	-9	-0.9	2.8	1	-11	-29	-4.9	2%	1
COC(=O)C1CN(C(=O)COc2cc(C)cc(C)c2)c2ccccc2O1 (stereo unspecified)	1.1	-7	-1.4	5.2	-4	4	1	0.7	-5%	-5
CCC/S(CC1CC1(Cl)Cl)=N\S(=O)(=O)c1ccc(C)cc1 (stereo unspecified)	2.0	-14	x	0.0	-3	x	x	x	-1%	-5
CCCn1c(C(C)Nc2nc(-c3ccc(Cl)c([N+](=O)[O-])c3)cs2)nc2cc(Cl)c(N3CCCCC3)cc21 (stereo unspecified)	-4.5	7	x	0.3	-2	x	x	x	x	5
CCCn1c(-c2cc(OC)c(OC)c(OC)c2)nc2nc3ccccc3nc21	0.5	5	x	-0.9	4	x	x	x	3%	3
S=c1nc(COc2ccccc2)[nH]c2ccccc12	-1.7	-15	2.8	2.8	7	10	13	11	x	5
COCc1nnc(NC(=O)c2ccc(S(=O)(=O)N(C)C3CCCCC3)cc2)o1	-2.0	-14	x	1.9	-3	x	x	x	63%	1
O=C(CNC(=O)c1ccncc1)N/N=C/c1cc(Br)ccc1OCc1ccccc1	0.5	-13	x	0.4	1	-8	-14	0.4	u	1
COc1ccccc1N=C(C)C1=C(O)CC(c2ccccc2)CC1=O (stereo unspecified)	1.0	24	1.5	20*	4	-16	-27	-0.3	x	28
Cc1[nH]nc2c1C(c1ccccc1F)NC2=O (stereo unspecified)	0.2	-7	-4.6	0.4	-1	3	8	0.4	-4%	x
Cc1cccc(NC(=O)CSCC(=O)N(CCC(C)C)c2c(N)n(Cc3ccccc3)c(=O)[nH]c2=O)c1	-0.4	1	-3.2	-4.2	x	4	12	2.4	4%	-4
CSc1nncc(-c2ccc(F)cc2)n1	0.1	1	x	3.0	-11	x	x	x	-1%	4
COc1ccc(COC(=O)NNC(=O)c2ccc(OC)cc2)cc1	-0.1	-10	x	0.6	-7	x	x	x	-3%	-1
CCCCOc1ccc(-c2nnn(C(C)(C)C(=O)OC)n2)cc1	0.4	15	x	-1.0	-1	x	x	x	27%	10
COC(=O)c1c(NC(=O)CN2CCC3(O)CCCCC3C2c2ccccc2OC)sc(C)c1C (stereo unspecified)	0.4	18	1.6	0.6	0	8	9	13	x	6
CCOC(=O)/C(C#N)=C/c1cc2ccccc2nc1Cl	0.7	0	12	4.2	2	9	15	4.1	-8%&20%	1
O=C(Nc1nnc(Cc2ccccc2)s1)c1cccnc1	-0.1	-6	-8.3	-3.2	10	5	7	-3.2	4%	-4
CC(C)(C)Sc1nc(O)cc(=O)[nH]1	0.1	-20	x	-0.1	-19	x	x	x	6%	-1
CC1CCc2c(sc(NC(=O)COC(=O)c3ccccc3NCc3ccco3)c2C#N)C1 (stereo unspecified)	0.5	4	x	-0.8	-14	x	x	x	1%	-4
Cc1ccccc1-c1nc(CN2CCSCC2)c(C)o1	0.0	-1	1.4	-2.9	-31	-10	-11	-1.7	8%	1
CCCCC(=O)Nc1c2c(nn1-c1ccc(C)cc1)CS(=O)(=O)C2	1.5	-2	0.9	0.4	-3	5	12	-1.1	-10%	-5
O=C(CCC1CCCC1)N1CCN(C2CCCC2)CC1	-0.1	17	x	-2.6	1	x	x	x	0%	-6
O=C(COc1ccc(-c2nnc(N3CCCCC3)c3ccccc23)cc1)N1CCCCC1	0.8	7	x	-0.1	2	x	x	x	13%	-7
CCOC(=O)c1c(C)[nH]c(C(=O)C(C)OC(=O)c2ccc(NC(=O)CC#N)cc2)c1C (stereo unspecified)	1.2	x	1.3	x	x	9	0	2.6	-5%	-6

Remaining list, next part
SMILES	A1 inh	T cruzi inh	AF4-AF9 inh	RanGTP-Impb inh	Calb FLC	rRNA inh HTS	rRNA inh HTS OD600	rRNA inh HTS RFP	Vif TR-FRET	Beta apoptosis
CC1CCN(S(=O)(=O)c2ccc(NC(=O)c3ccco3)cc2)CC1	1.1	-12	4.9	-0.6	-4	-2	-13	1.6	x	4
COc1cccc(CN2CCN(Cc3c(C)nn(C(C)C)c3C)CC2CCO)c1 (stereo unspecified)	-0.4	71*	1.3	4.9	12	9	-1	0.4	2%	-4
Cc1cc(OCc2nn[nH]n2)c2c(-c3ccccc3)cc(=O)oc2c1	0.1	-12	x	-2.5	u	x	x	x	14%	-4
O=C(O)CCCC(=O)NNC(=O)c1cccc(Br)c1	1.7	-15	-1.2	5.2	-2	22	18	0.7	8%	9
CCOC(=O)CCNC(=O)c1ccc2nc(C3CCCCC3)oc2c1	2.7	0	-7.6	0.5	-1	0	-6	-2.5	x	-1
Cc1ccc(N/N=C(\C#N)C(=N)N2CCCCCC2)cc1	0.2	10	0.7	-1.2	27	12	25	4.7	x	3
Cc1ccc(NC(=O)CN2CCCCC2)c2c1CC(C)(C)O2	-0.6	2	0.2	1.1	-8	15	8	-2.6	u	4
COc1cc(/C=N/NC(=O)CC(=O)NC2CCCCC2)ccc1O	0.8	11	-3.1	5.6	14	10	13	-1.7	x	-4
O=C1CC(NS(=O)(=O)c2ccc([N+](=O)[O-])cc2)CN1c1cccc(F)c1 (stereo unspecified)	1.2	65*	5.6	2.7	-13	-6	4	-4.3	-1%	x
Cc1ccc(S(=O)(=O)N2CCN(C(=O)CCn3cncn3)CC2)cc1	0.2	-2	-1.4	0.1	-2	7	5	-2.8	6%	x
CCCNC(=O)Nc1cccc(NC(C)=O)c1	0.1	4	0.3	0.3	-18	7	-2	-4.0	-6%	3
COc1cccc(NC(=O)COC(=O)c2cc(S(=O)(=O)N3CCOCC3)ccc2C)c1	-0.2	-3	x	-0.9	-8	x	x	x	u	4
Cc1nnc(SCC(=O)NCC2CCCCC2)n(N)c1=O	-0.5	-8	x	-0.8	0	x	x	x	-2%	-7
O=C(COC(=O)CN1C(=O)c2ccccc2C1=O)NC1CCCC1	0.3	-3	-26	-2.8	5	7	8	0.8	x	-1
Cc1ccc(OCCC(=O)OCC(=O)NC(=O)NCc2ccccc2)cc1	-1.1	-3	-0.8	-4.9	6	6	0	1.4	2%	-4
NC(N)=NS(=O)(=O)c1ccc(N)cc1	0.4	1	-2.3	-1.3	x	12	15	0.1	u	-5
Cc1cc(NC(=O)COC(=O)c2ccco2)no1	1.0	-5	-2.0	-1.0	1	20	-10	-2.4	7%	-2
O=C(c1cc2c(s1)CCCC2)N1CCN(Cc2ccc3c(c2)OCO3)CC1	-0.4	27	x	4.6	x	x	x	x	1%	-6
COc1ccccc1OCc1ccc(C(=O)NCC(C)C)o1	-0.2	-20	-1.4	0.7	u	5	9	-1.9	4%	-5
O=C(OCCc1cc2ccccc2c(=O)o1)c1cccc(Br)c1	0.7	x	-3.5	x	x	-23	-35	-16	x	-4
CCOc1c(Cl)cc(/C=N/O)cc1OC	-0.5	-1	x	0.5	u	x	x	x	-4%	-7
CC1CCCCC12NC(=O)N(CC(=O)c1ccc[nH]1)C2=O (stereo unspecified)	-0.5	-6	x	-0.2	-6	x	x	x	20%	15
Cc1ccccc1Cc1c(C)nc2c(C(=O)N3CCN(Cc4ccc5c(c4)OCO5)CC3)cnn2c1C	-1.0	41	x	0.5	-5	x	x	x	0%	-4
CCOC(=O)c1[nH]c2ccc(OC)cc2c1NC(=S)N1CCN(c2ccccc2)CC1	0.5	10	x	6.7	5	x	x	x	x	1
Cc1cccc(-c2nnc3n2N=C(c2ccccc2Br)CS3)c1	-0.3	19	x	3.1	-3	x	x	x	0%	15
O=c1[nH]c(Cc2ccc(F)cc2)nc2scc(-c3ccc(F)cc3)c12	0.7	23	-5.1	9.1	-9	3	9	-4.5	0%	8
CCCC(=O)Nc1nc2ccc(S(=O)(=O)N3CCCCC3)cc2s1	0.0	-56	-6.0	u	0	-4	13	1.1	32%	31
O=C(/C=C/c1ccccc1)NC(=S)N1CCSCC1	0.4	-16	-0.9	u	-1	0	-9	-3.1	8%	-5
CC(=O)NC(Cc1ccc(F)c(F)c1)C(=O)NC1CCN(C(=O)c2ccc(Cl)cc2)CC1 (stereo unspecified)	0.6	-2	1.9	2.5	8	5	11	-0.3	x	x

An excerpt from above in order of molecular weight, descending.
SMILES	A1 inh	T cruzi inh	AF4-AF9 inh	RanGTP-Impb inh	Calb FLC	rRNA inh HTS	rRNA inh HTS OD600	rRNA inh HTS RFP	Vif TR-FRET	Beta apoptosis
Cc1ccccc1Cc1c(C)nc2c(C(=O)N3CCN(Cc4ccc5c(c4)OCO5)CC3)cnn2c1C	-1.0	41	x	0.5	-5	x	x	x	0%	-4
CCOC(=O)c1[nH]c2ccc(OC)cc2c1NC(=S)N1CCN(c2ccccc2)CC1	0.5	10	x	6.7	5	x	x	x	x	1
O=C1CC(NS(=O)(=O)c2ccc([N+](=O)[O-])cc2)CN1c1cccc(F)c1 (stereo unspecified)	1.2	65*	5.6	2.7	-13	-6	4	-4.3	-1%	x
CCCC(=O)Nc1nc2ccc(S(=O)(=O)N3CCCCC3)cc2s1	0.0	-56	-6.0	u	0	-4	13	1.1	32%	31
Cc1ccc(S(=O)(=O)N2CCN(C(=O)CCn3cncn3)CC2)cc1	0.2	-2	-1.4	0.1	-2	7	5	-2.8	6%	x
O=c1[nH]c(Cc2ccc(F)cc2)nc2scc(-c3ccc(F)cc3)c12	0.7	23	-5.1	9.1	-9	3	9	-4.5	0%	8
Cc1nnc(SCC(=O)NCC2CCCCC2)n(N)c1=O	-0.5	-8	x	-0.8	0	x	x	x	-2%	-7
Cc1ccc(NC(=O)CN2CCCCC2)c2c1CC(C)(C)O2	-0.6	2	0.2	1.1	-8	15	8	-2.6	u	4
CC1CCCCC12NC(=O)N(CC(=O)c1ccc[nH]1)C2=O (stereo unspecified)	-0.5	-6	x	-0.2	-6	x	x	x	20%	15
Cc1ccc(N/N=C(\C#N)C(=N)N2CCCCCC2)cc1	0.2	10	0.7	-1.2	27	12	25	4.7	x	3
Cc1cc(NC(=O)COC(=O)c2ccco2)no1	1.0	-5	-2.0	-1.0	1	20	-10	-2.4	7%	-2
NC(N)=NS(=O)(=O)c1ccc(N)cc1	0.4	1	-2.3	-1.3	x	12	15	0.1	u	-5
